Screening data: PubChem, several laboratories
UCH37 inh: human UCH37 deubiquitinating enzyme inhibition; Q9Y5K5; purified proteasome/UCH37, Ub-AMC cleavage fluorescence; inhibition, % (concentration not given with the values); hit rate 0.33% among 330,000; AID 588478;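 active = mean of two replicates above 20%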;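 note: 0% = compound-free wells with enzyme and 100% = wells lacking proteasome; stock transfer was 100 nL into about 20 µL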
Target sequence (Q9Y5K5 whole entry, looked up): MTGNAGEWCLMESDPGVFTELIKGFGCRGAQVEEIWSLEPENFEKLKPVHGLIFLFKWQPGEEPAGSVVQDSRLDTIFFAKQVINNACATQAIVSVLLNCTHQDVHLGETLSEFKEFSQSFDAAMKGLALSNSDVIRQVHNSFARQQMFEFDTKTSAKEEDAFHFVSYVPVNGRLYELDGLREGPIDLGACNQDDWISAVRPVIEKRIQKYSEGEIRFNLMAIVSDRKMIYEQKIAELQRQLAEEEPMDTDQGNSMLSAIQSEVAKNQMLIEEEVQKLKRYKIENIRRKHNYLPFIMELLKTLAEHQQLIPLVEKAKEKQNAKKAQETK
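Signal – fluorescence, ex 355 nm, em 460 nm · System – Proteasome-bound UCH37 · Input – 0.15 nM proteasome as dispensed · Timing – 30 min preincubation with enzyme, 25 min cleavage at room temperature · Read-out basis – percent inhibition of cleavage signal versus uninhibited and no-proteasome wells · Medium – Tris-HCl pH 7.4 with ATP-MgCl2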
A1 inh: inhibitors of the anti-apoptotic protein A1, read as caspase activation. MEF A1-2A-BIM cells, Caspase-Glo 3/7 luminescence, 3 h; percent of clofoctol response, vehicle zero. caspase activation, % (concentration not given with the values). hit rate 0.066% among 330,000;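 active = over half of replicate activation scores above 10%, or exactly half above 10 with the replicate mean above 10; inconclusive = replicate mean below 10 yet half the replicates above 10; inactive = over half of replicates below 10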;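 note: wells of about 30 µL received 50 nL stock; many hits fall short of the cut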
B2AR ag: activates human beta-2 adrenergic receptor causing internalization | P07550 | response, % (concentration not given with the values) | hit rate 0.43% among 340,000 | AID 504454 | Am2.2-beta2AR cells, FAP receptor internalization, flow cytometry; reference of the scale not given here;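 active = response above a set limit, near 3 SD of response in nonfluorescent compounds, cut at about 42% in these data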;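 note: stock transfer was 100 nL into about 11 µL; a reference agonist was the positive control; negative values mostly stem from fluorescent compounds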
Target sequence (P07550 whole entry, looked up): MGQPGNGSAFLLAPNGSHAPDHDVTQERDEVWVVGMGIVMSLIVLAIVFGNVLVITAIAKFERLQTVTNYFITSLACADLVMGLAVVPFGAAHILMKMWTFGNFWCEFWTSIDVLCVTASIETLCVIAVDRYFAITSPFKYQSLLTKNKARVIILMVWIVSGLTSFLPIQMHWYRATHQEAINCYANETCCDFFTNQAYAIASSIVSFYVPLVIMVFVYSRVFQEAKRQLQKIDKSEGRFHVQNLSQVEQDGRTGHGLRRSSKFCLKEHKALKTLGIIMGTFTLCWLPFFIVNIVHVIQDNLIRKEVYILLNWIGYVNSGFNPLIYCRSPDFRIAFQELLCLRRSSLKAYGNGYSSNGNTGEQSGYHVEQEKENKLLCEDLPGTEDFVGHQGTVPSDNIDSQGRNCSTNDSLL
RanGTP-Impb inh: disruptors of Ran-importin-beta complex formation – biochemical, FRET, CFP-Ran, YFP-importin-beta, homogeneous, primary screen; cell-free CFP-Ran/YFP-importin-beta FRET ratio; inhibition, % (no concentration beside the values); hit rate 1.1% among 300,000; AID 2216;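 active = most replicates above 15%; inconclusive = exactly half above 15%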;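 note: 0% = DMSO wells and 100% = Ran loaded with GDP instead of GTP; wells of about 40 µL received 100 nL stock; the first replicate is given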
LANA-H2B inh: blocks KSHV LANA binding to histone H2A/H2B. Q9QR71. cell-free LANA-H2A/H2B peptide, fluorescence polarization. inhibition, % (concentration not given with the values). hit rate 0.6% among 320,000; in the data active = inhibition mostly above about 10%, no sharp cut-off; inactive = mostly below about 6.7%;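 note: stock transfer was 7.5 nL into about 10 µL; 0% = median of vehicle wells and 100% = median of positive control wells; one replicate is shown; the record names a cut of 25% in any replicate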
Beta apoptosis: beta cell apoptosis inhibition; INS-1E cytokine-induced death, ATP luminescence, 48 h; percent of positive-control rescue, neutral wells zero; protection from apoptosis, % (no concentration beside the values); hit rate 0.8% among 300,000;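 active = all replicates at 75% or more, or half of them and the mean; inconclusive = half reach 75% but not the mean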;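 note: 0% = cytokine-treated negative control wells and 100% = positive control rescue; higher means more ATP so stronger rescue from cytokine killing; wells of about 40 µL received 100 nL stock; the first replicate is given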
Calb FLC: C. albicans growth modulation with fluconazole; C. albicans CaCi-2 (fluconazole-resistant clinical isolate) + fluconazole, Alamar Blue growth, 48 h; growth inhibition, % (no concentration beside the values); hit rate 0.57% among 300,000; AID 1979;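 active = most replicates above 75%; inconclusive = exactly half above 75%; inactive = most below 75%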;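 note: all wells also contain fluconazole at 8 µg/ml as a sub-toxic cotreatment; 0% = median of DMSO wells and 100% = median of geldanamycin control wells; wells of about 8 µL received 7.5 nL stock; the first replicate is given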
T cruzi inh: T. cruzi replication inhibition; T. cruzi beta-gal in NIH3T3, luminescence, 90 h; inhibition, % (test concentration not listed); hit rate 1.4% among 300,000; AID 1885;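 active = mean inhibition across valid replicates above about 55%, limit read from the data; inconclusive = mean below that limit but half or more replicates reach it; inactive = mean below it, under half of replicates reach it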;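 note: signal also drops with host cell toxicity which is not excluded here; 0% = plate median of DMSO wells and 100% = zero luminescence signal; higher percent means less beta-gal luminescence so fewer parasites; stock transfer was 50 nL into about 50 µL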
Numbers without * were called inactive; ? = inconclusive; . = not tested or not shown.

SMILES | UCH37 inh | A1 inh | B2AR ag | RanGTP-Impb inh | LANA-H2B inh | Beta apoptosis | Calb FLC | T cruzi inh
CC1Oc2ccccc2N(CC(=O)c2ccc(F)cc2)C1=O (stereo not given) | 1.6 | -0.7 | 5 | -0.7 | -7.5 | -6 | -6 | -13
CC1(C)Cc2c(sc3c2C(=O)N(c2ccccc2)C2=NCCCN23)CO1 | -1.5 | 1.0 | 4 | 8.9 | -2.2 | 3 | -1 | -17
Cc1ccc(CC(=O)NCc2ccc(F)cc2)cc1 | -0.5 | 2.1 | -2 | . | -0.8 | -4 | 8 | -65
O=C(CCCN1CCC(NC(=O)c2ccccc2)CC1)c1ccc(Cl)cc1 | -2.6 | 1.7 | -8 | 4.0 | 2.7 | . | 3 | -9
CC(O)c1cccc(NC(=O)CCCc2ccccc2)c1 (stereo not given) | -0.4 | 2.0 | -3 | -3.3 | 4.6 | -5 | -23 | -10
O=C(Nc1ccc(Br)cc1)C(c1ccccc1)c1ccccc1 | 1.9 | -1.2 | -3 | -0.9 | -1.1 | -2 | 7 | 12
O=C(c1ccccc1)N1CCN(CC#Cc2ccccc2)CC1 | 4.4 | -2.8 | -8 | 2.5 | -2.6 | -4 | -2 | 0
Cc1ccccc1CCNC(=O)c1ccc(Cl)c(S(=O)(=O)N2CC(C)OC(C)C2)c1 (stereo not given) | 0.3 | -0.6 | 7 | . | 1.5 | 24 | . | .
O=C(CCc1nc(-c2ccccc2F)no1)NCCc1ccccc1Cl | 1.9 | -0.5 | 0 | -1.2 | 1.2 | 0 | -1 | 29
NC(=O)NCc1ccccc1Cl | 2.6 | 0.6 | 5 | 0.5 | -2.5 | -6 | -22 | -4
COc1ccc(C)cc1NC(=O)CN1CCN(S(=O)(=O)c2ccc(Br)cc2)CC1 | 0.7 | 0.1 | 0 | 3.1 | . | -2 | -2 | 18
O=C(CN1C(=O)S/C(=C\c2ccc(-c3cc(C(=O)O)ccc3Cl)o2)C1=O)Nc1ccc2c(c1)OCO2 | . | 0.6 | -1 | . | 4.2 | -1 | 12 | .
CCn1c(SCC(=O)Nc2ccc3c(c2)OCCO3)nnc1-c1cccs1 | 0.7 | 0.7 | -22 | 5.7 | -5.2 | 6 | -10 | 7
CC(=O)NCCc1nc2cc(NC(=O)c3ccccc3C)ccc2n1C | 0.9 | -0.4 | -2 | -0.6 | -9.8 | -4 | 9 | -3
Cc1ccc(S(=O)(=O)N(CCC(=O)Nc2ccc(OC(F)(F)F)cc2)c2ccccc2)cc1 | 5.0 | 0.3 | -4 | -0.4 | -0.8 | -8 | -9 | 49
CC(C)C(c1nnnn1CCc1ccccc1)N1CCSCC1 (stereo not given) | 0.3 | -1.8 | 16 | 0.5 | 1.8 | 1 | 31 | 15
COc1cc(C2C(C#N)=C(N)Oc3c2c(-c2ccccc2)nn3-c2ccccc2)cc(OC)c1OC (stereo not given) | 4.5 | -0.6 | 27 | 1.3 | 8.4 | 3 | -2 | 6
Cc1ccc(P(=O)(OCCN2CCOCC2)C(C)(C)C)o1 (stereo not given) | -0.1 | 0.7 | -2 | 7.6 | -0.1 | 2 | -2 | -2
CCOC(=O)c1[nH]c2ccccc2c1NC(=O)COC | -5.2 | 0.6 | -2 | 2.2 | -1.4 | -4 | 2 | -1
Cc1ccccc1/C=C\c1nc2ccccc2c(=O)[nH]1 | -150 | -7.0 | 5 | 4.0 | -4.8 | . | -3 | 1
CCOC(=O)C1=C(c2ccccc2)NC(=O)NC1c1cc(Cl)c(O)c(OC)c1 (stereo not given) | 4.1 | 0.6 | 11 | 0.5 | -1.7 | -3 | 0 | -2
CC(C)(C)N1CC23CCC(C[C@@H]2C1=O)O3 (stereo not given in full) | 4.0 | ? | -1 | 6.3 | 1.1 | -8 | -5 | -5
O=C(Nc1ccc(Cl)cc1C(=O)Nc1ccccn1)c1ccco1 | -3.1 | 0.8 | -6 | 0.0 | 1.3 | 9 | 7 | -7
O=C(CNC(=O)c1ccc(Br)o1)NC1CCCCCC1 | 2.4 | 0.0 | -9 | -4.0 | -7.0 | 4 | -3 | -11
O=C(NCc1ccc2c(c1)OCO2)c1cccc([N+](=O)[O-])c1 | 2.1 | -0.6 | -13 | 0.7 | -6.3 | -4 | -22 | 0
COc1ccc(-c2[nH]ncc2-c2nc(C)cs2)c(O)c1 | 1.3 | 0.4 | -9 | 6.8 | 1.1 | -1 | 10 | -4
COc1ccc(F)cc1CN1CCN(CC(=O)Nc2ccccc2C(=O)NC2CC2)CC1 | 0.8 | -0.4 | 7 | . | 1.6 | 1 | . | .
CCOC(=O)C1(CCCc2ccccc2)CCN(C(=O)c2ccoc2)CC1 | 2.0 | 0.4 | 6 | -5.2 | -0.1 | 5 | -12 | 11
O=C(NC(=S)Nc1ccccc1Cl)C1CC1 | 1.7 | -0.7 | -5 | . | -6.2 | 1 | . | 0
Nc1cc(-c2ccccc2)nn1S(=O)(=O)c1ccc(F)cc1 | 5.2 | 1.3 | -4 | -0.1 | 3.5 | 0 | 3 | 14
CCN(CC)CCCNc1oc(-c2ccc(OC)c(OC)c2)nc1C#N | -45 | 0.4 | 3 | 0.4 | -2.0 | -1 | -4 | 14
COc1ccc(-c2csc(NC(=O)CSC(C)C(=O)Nc3cc(C)on3)n2)cc1OC (stereo not given) | -1.7 | -1.1 | 21 | . | -8.1 | 2 | . | .
Cc1ccc(-n2ncc3c2CC(C)(C)CC3NC(=O)CCn2cncn2)cc1 (stereo not given) | 2.3 | -1.0 | -6 | -1.5 | 3.1 | -4 | 5 | 3
CC(=O)N1CCN(C(=O)c2cc(S(=O)(=O)N(C)c3ccc(F)cc3)ccc2Cl)CC1 | -1.5 | -0.4 | -10 | 4.4 | -3.2 | . | -4 | -1
Cc1ccccc1/C=N/NC(=O)Cn1nnc(N)n1 | . | 0.0 | -10 | 0.7 | 6.9 | 2 | 7 | -13
Cc1c(-c2cccs2)[n+](=O)c2c(n1[O-])CCC2 | 7.9 | -0.5 | -2 | -1.6 | -2.0 | -1 | -12 | -5
COc1ccc(C(=O)Nc2ccc(/C(C)=N/NC(=O)c3ccccc3O)cc2)cc1OC | . | -2.9 | 12 | 6.5 | . | 1 | -3 | -21
Cc1ccc(S(=O)(=O)N2CCN(CC(O)c3ccccc3)CC2)cc1C (stereo not given) | 3.7 | -0.5 | 0 | 1.1 | 2.7 | -4 | -11 | 9
COc1cccc(-c2nn(-c3ccc(C)cc3)cc2C(=O)N(C)CC(=O)Nc2cccc(F)c2)c1 | 4.3 | -1.0 | 6 | . | 2.4 | 4 | . | .
O=C(NCc1ccccn1)c1cc2cc(Br)ccc2oc1=O | -0.2 | 0.5 | -14 | -3.0 | 3.5 | 2 | 3 | -8
O=C(Nc1ccc(F)cc1)c1ccc2ncsc2c1 | -1.7 | -6.4 | -3 | 2.8 | -0.2 | . | -26 | -7
O=C(CSc1ccc(-c2ccccn2)nn1)NC1CCCC1 | 3.9 | 0.6 | -10 | -2.6 | 3.0 | -9 | 43 | -3
CCOc1ccc(NC(C)=O)cc1N | -2.4 | 0.2 | -7 | . | -1.2 | 3 | . | .
CCN(CC)c1nc(Oc2ccc(=O)[nH]n2)nc(N2CCOCC2)n1 | 4.5 | 0.5 | -8 | 5.5 | 6.0 | -3 | -2 | -4
N/C(=N\OC(=O)Cc1ccc([N+](=O)[O-])cc1)c1ccccn1 | . | . | -7 | 1.1 | . | . | -1 | 20
COc1ccc(C(=O)/C=C/c2ccc(OC)c(COc3ccc(F)cc3)c2)cc1 | 3.0 | -0.3 | 11 | 2.0 | -2.3 | 2 | -30 | 24
O=[N+]([O-])c1ccccc1S(=O)(=O)NCCc1ccncc1 | -0.6 | -0.5 | -6 | -0.2 | 1.8 | 0 | 1 | -9
Cc1cc(N2CCN(c3ccccc3)CC2)nc2ccccc12 | -22 | 0.3 | -8 | -4.7 | 2.1 | 11 | 2 | 26
N#CCC(=O)Nc1ccc(C(=O)OCC(=O)NNC(=O)c2cccs2)cc1 | -0.4 | 0.5 | -3 | -3.5 | -3.8 | 5 | 1 | -4
CC(C)OC(=O)Cc1nc2sc(-c3ccccc3)cc2c(=O)[nH]1 | -19 | -2.7 | 10 | 3.5 | -0.7 | -3 | 1 | -2

Next section.
SMILES | UCH37 inh | A1 inh | B2AR ag | RanGTP-Impb inh | LANA-H2B inh | Beta apoptosis | Calb FLC | T cruzi inh
COC(=O)C1=C(C)N(Cc2ccccc2)C(=NCCCCO)N[C@H]1c1ccccc1 | 3.1 | -0.5 | . | ? | 1.4 | 6 | 11 | 15
COc1ccc(C(=O)NCc2ccccc2C)cc1S(=O)(=O)NC1CCCC1 | 3.2 | 0.4 | 21 | . | 6.3 | 6 | . | .
Cc1ccc(CSc2nc3nc(C)cc(C)c3c(=O)[nH]2)cc1 | 0.0 | -1.3 | 4 | 4.3 | -2.7 | 0 | 16 | -2
O=C1CC(c2c(F)cccc2Cl)C2=C(COC2=O)N1 (stereo not given) | -0.6 | -0.4 | -5 | -2.0 | 2.0 | -7 | -1 | -14
COc1cccc(CNn2cnnc2)c1OCc1ccc(F)cc1 | 2.9 | -0.9 | -8 | 0.4 | -1.1 | -3 | 6 | -3
N=C1/C(=C/c2coc3ccccc3c2=O)C(=O)N=C2SC(c3ccco3)=NN12 | -14 | 0.0 | -66 | -32 | -4.8 | -2 | 2 | 11
CC(C)C(=O)Nc1cc(=O)[nH]c2ncnn12 | 4.9 | -1.5 | -2 | 1.5 | 0.0 | -4 | ? | 0
COc1ccc(-c2nc(SCC(=O)Nc3c(F)cccc3F)n[nH]2)cc1 | 1.2 | -1.3 | -1 | . | 2.2 | 3 | -4 | 1
CCCCc1cc(=O)oc2cc(C)cc(OCc3nn[nH]n3)c12 | -235 | -0.1 | 0 | 4.7 | -6.0 | -4 | -2 | 1
COc1ccccc1N1CCN(C(=O)C2CC=CCC2C(=O)O)CC1 (stereo not given) | -4.3 | 0.6 | -5 | -0.7 | 3.2 | 1 | -9 | 5
NC(=O)Cn1cc(/C=N\NS(=O)(=O)c2ccccc2)c2ccccc21 | . | -1.2 | -3 | 2.7 | 5.5 | 10 | -23 | 0
Cc1occc1C(=O)NNC(=O)C1CC1 | 1.4 | -1.0 | 4 | 0.9 | 3.9 | 1 | -2 | -10
O=C(NCCc1ccccc1)c1ccc(Cl)nc1 | 3.4 | -1.7 | 12 | 1.0 | -5.5 | -5 | 7 | -4
Cc1ccc(OC(C)C(=O)Nc2ncc(Cl)cc2Cl)c([N+](=O)[O-])n1 (stereo not given) | -26 | -0.7 | -9 | . | -1.4 | -2 | . | .
O=C(NNC(=S)Nc1ccc(F)cc1)C1CC1c1ccc(Cl)cc1 (stereo not given) | 0.4 | 1.0 | -1 | 1.2 | -0.7 | -2 | 5 | 8
O=C(COn1nnc2ccc(Cl)cc21)Nc1ccc(F)cc1 | -0.5 | -0.3 | -7 | 0.1 | 4.3 | -3 | 6 | -18
